KCNQ2 enhance = potentiators of rat KCNQ2 potassium channel. actives 0.54% (n = 310,000). CHO-K1 KCNQ2, FluxOR thallium flux fluorescence; stronger effect = higher value. Potassium voltage-gated channel subfamily KQT member 2 (Rattus norvegicus), O88943. B-score at 10 µM;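 active means fluorescence ratio B-score at least 3 SD of library B-scores, with initial fluorescence B-score within 3 SD, cut at about 5.3 in these data; same plate scores as AID 2156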;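 further: B-score of peak minus minimum over baseline fluorescence ratio after K+ and Tl+ stimulus; positive B-score means potentiation of KCNQ2 with more thallium influx and brighter signal; only the inactives scoring about 0 or higher are listed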
Target sequence (O88943 whole entry, looked up): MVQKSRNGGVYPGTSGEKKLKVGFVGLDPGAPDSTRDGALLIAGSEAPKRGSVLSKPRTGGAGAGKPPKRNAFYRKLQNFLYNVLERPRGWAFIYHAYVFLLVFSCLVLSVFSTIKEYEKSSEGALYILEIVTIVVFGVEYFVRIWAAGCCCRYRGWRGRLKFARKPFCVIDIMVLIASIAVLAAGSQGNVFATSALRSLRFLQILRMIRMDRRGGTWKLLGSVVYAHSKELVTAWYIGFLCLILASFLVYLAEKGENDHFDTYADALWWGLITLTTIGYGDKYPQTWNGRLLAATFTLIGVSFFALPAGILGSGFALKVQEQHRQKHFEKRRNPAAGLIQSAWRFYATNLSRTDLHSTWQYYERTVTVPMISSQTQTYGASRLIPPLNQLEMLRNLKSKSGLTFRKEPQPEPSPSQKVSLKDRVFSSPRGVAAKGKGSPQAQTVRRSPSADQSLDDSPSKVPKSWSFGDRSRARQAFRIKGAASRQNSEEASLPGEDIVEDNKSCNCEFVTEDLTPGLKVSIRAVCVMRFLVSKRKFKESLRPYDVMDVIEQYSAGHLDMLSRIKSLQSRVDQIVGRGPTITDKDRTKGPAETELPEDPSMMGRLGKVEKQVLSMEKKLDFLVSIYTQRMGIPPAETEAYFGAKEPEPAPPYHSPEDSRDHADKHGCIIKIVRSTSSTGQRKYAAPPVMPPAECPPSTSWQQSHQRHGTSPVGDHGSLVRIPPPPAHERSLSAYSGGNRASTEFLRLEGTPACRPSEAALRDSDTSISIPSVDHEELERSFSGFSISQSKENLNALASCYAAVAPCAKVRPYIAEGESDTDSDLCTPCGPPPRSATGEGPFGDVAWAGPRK
KCNQ2 enhance baseline = recorded beside KCNQ2 enhance, whose call it bears; B-score; compound at 10 µM; measured here: initial fluorescence intensity artifact check;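 brightness before thallium and not channel activity; 0 = typical well and far values either way flag optical interference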
* marks the source's active call; other numbers are inactive results.

Each structure is followed by: KCNQ2 enhance | KCNQ2 enhance baseline
1: Cc1noc(C)c1C(=O)Nc1nc2ccc(Cl)cc2s1
    2.3 | -0.54
2: CCOc1ccc(S(=O)(=O)N2CCN(S(=O)(=O)c3ccc(C)c(C)c3)CC2)cc1
    0.07 | -0.64
3: CCOc1ccc(NC(=O)COc2ccc(C(=O)NC3CCCc4ccccc43)cc2OC)cc1 (stereo not given)
    0.06 | -0.05
4: Cc1oc(-c2ccccc2)nc1CS(=O)CC(=O)NC1CCCCCC1 (stereo not given)
    0.28 | -1.5
5: Cc1cc(N2CCN(C)CC2)nc2ccc(NC(=O)CCC(=O)N3CCN(c4ccc([N+](=O)[O-])cc4)CC3)cc12
    1.4 | 0
6: COc1cccc(CNC(=O)Cc2ccc(S(=O)(=O)N3CCOCC3)s2)c1
    0.8 | 0.92
7: C/C(CCc1ccc2c(c1)OCO2)=N\NC(=O)c1ccccc1
    0.3 | -0.3
8: Cc1c(C(=O)Nc2ccncc2)oc2c1C(=O)CC(C)(C)C2
    0.79 | -0.92
9: Cc1ccc(C(=O)OC/C(O)=C(\C#N)c2nc3ccccc3[nH]2)cc1S(=O)(=O)N1CCOCC1
    0.91 | 0.85
10: CC(=O)Nc1ccc(NC(=O)Cc2ccc(-c3ccccc3)cc2)cc1
    0.65 | -2.4
11: Cc1ccc(S(=O)(=O)NC2=NCN(Cc3cccnc3)CN2)cc1
    0.23 | 1.1
12: COc1ccc(Cl)cc1C(=O)NNC(=O)COC(=O)CCN=C1NS(=O)(=O)c2ccccc21
    0.51 | -0.34
13: CCOC(=O)c1ccc(NC(=O)c2ccc(CN3CCc4ccccc4C3)cc2)cc1
    1.1 | -0.86
14: CCCCn1nnc(NC(=O)CCC)n1
    0.53 | -0.75
15: Cc1c(NC(=O)c2ccc(NC(=O)C3CC3)cc2)cccc1C(=O)O
    0.63 | 0.45
16: Cc1ccc2[nH]c(=O)c(CN(CCCO)S(=O)(=O)c3cccc4nsnc34)cc2c1
    1.9 | -1.3
17: COc1ccc(CC(=O)NNC(=O)c2ccc(Br)o2)cc1
    0.17 | -0.11
18: COc1ccc(CCNC(=O)/C(C#N)=C2\N=C(NC(=O)c3ccco3)c3ccccc32)cc1
    1.6 | 0.52
19: O=C(NCCN1CCOCC1)Nc1ccc(Cl)cc1
    1.1 | 0.03
20: O=C1NC(=S)N/C1=C/C=C/c1ccccc1
    0.89 | -3.1
21: COCC(C)NC(=O)c1cc(OC)cc(OC)c1 (stereo not given)
    0.03 | -0.04
22: N#Cc1c(N)n(C2CCCCC2)c2nc3ccccc3nc12
    0.96 | -0.5
23: Cc1ccsc1C(=O)OCC(=O)Nc1cccc(S(=O)(=O)NC2=NCCCCC2)c1
    0.01 | 0.55
24: COc1ccc(CC(=O)Nc2ccc(N(C)C)c3ccccc23)cc1
    3.1 | -0.06
25: N#Cc1c(SCC(=O)Nc2ccc(C(F)(F)F)cc2)sc2c(O)cc(=O)[nH]c12
    0.08 | 0.02
26: Cc1c(CN2CCN(C)C(CCO)C2)[nH]c2c(Cl)cccc12 (stereo not given)
    0.41 | -0.27
27: Cc1cc2c(NS(=O)(=O)c3ccc(F)cc3)cccc2nn1
    0.97 | 1.1
28: C=CCN(Cc1cn(C)nc1-c1cccc(Cl)c1)C1CCS(=O)(=O)C1 (stereo not given)
    1.3 | -2.8
29: C=CCSc1nnnn1-c1ccc(OC)cc1
    2.1 | -0.9
30: Cc1ccccc1C(=O)Nc1cccc(C(=O)N/N=C/c2ccc3c(c2)OCO3)c1
    0.01 | -1.1

5 structures from above, ordered by length of the SMILES, smallest number first:
Each structure is followed by: KCNQ2 enhance | KCNQ2 enhance baseline
20: O=C1NC(=S)N/C1=C/C=C/c1ccccc1
    0.89 | -3.1
27: Cc1cc2c(NS(=O)(=O)c3ccc(F)cc3)cccc2nn1
    0.97 | 1.1
26: Cc1c(CN2CCN(C)C(CCO)C2)[nH]c2c(Cl)cccc12 (stereo not given)
    0.41 | -0.27
30: Cc1ccccc1C(=O)Nc1cccc(C(=O)N/N=C/c2ccc3c(c2)OCO3)c1
    0.01 | -1.1
25: N#Cc1c(SCC(=O)Nc2ccc(C(F)(F)F)cc2)sc2c(O)cc(=O)[nH]c12
    0.08 | 0.02

Following part.
Each structure is followed by: KCNQ2 enhance | KCNQ2 enhance baseline
31: Cc1cccc([C@@H]2[C@@H]3C(=O)N(Cc4ccccc4)C(=O)[C@@H]3[C@]3(Cc4ccc(Cl)cc4)C(=O)N(c4cccc(Br)c4)C(=O)N23)c1
    0.42 | 1.2
32: O=C(COC(=O)/C=C/c1ccc(Cl)cc1Cl)NCCC1=CCCCC1
    0.33 | 1.4
33: CCC1(C)Nc2ccccc2C(=O)N1O (stereo not given)
    0.71 | -0.32
34: CC(=O)c1ccc(N(C(=O)CNC(=O)c2ccco2)C(C(=O)NC2CCCC2)c2ccc(C)o2)cc1 (stereo not given)
    0.6 | 0.15
35: O=[N+]([O-])c1cccc(S(=O)(=O)NCCc2ccccc2)c1
    0.26 | -2.1
36: CCOc1ccc(N(C)C(=O)CCc2nnc3ccc(N4CCOCC4)nn23)cc1
    0.86 | 1.7
37: Cn1nc(C(=O)NCCCN2CCCCC2)c2c1-c1ccccc1SC2
    1.6 | 0.16
38: CC(=O)Nc1ccc2[nH]c(C)cc(=O)c2c1
    0.09 | 0.52
39: CCOC(=O)N1CCC(NS(=O)(=O)c2ccc3c(c2)oc(=O)n3C)CC1
    1.3 | 0.83
40: O=C(c1cccc(NS(=O)(=O)c2ccccc2)c1)N1CCCC1
    1 | -0.62
41: COc1ccc(CCC(C)NC2CCCCCCC2)cc1 (stereo not given)
    0.8 | 0.62
42: COc1ccccc1-c1nc(C#N)c(N2CCN(C(=O)c3ccco3)CC2)o1
    0.58 | -1.1
43: COC(=O)c1ccc(C)c(NC(=O)CCNC(=O)c2ccc([N+](=O)[O-])cc2)c1
    0.01 | 0.71
44: CC(=O)Nc1ccc(-c2csc(NNC(=O)c3ccccc3)n2)cc1
    0.28 | -1.7
45: Cn1c(=O)c2c(ncn2Cc2ccccc2)n(C)c1=O
    0.05 | -0.54
46: O=C(COc1ccccc1F)Nc1ccc(S(=O)(=O)Nc2nccs2)cc1
    0.23 | 0.66
47: O=C(CCc1nnc2ccc(NCc3ccco3)nn12)Nc1ccccc1F
    1.9 | -0.15
48: Cn1cc(CC(=O)NCCCN2CCCC2)c2ccccc21
    1.3 | -0.02
49: Cc1nnsc1NC(=O)OCc1ccc(Cl)cc1Cl
    0.78 | -0.03
50: CC(CCc1ccccc1)NC(=O)c1cccnc1 (stereo not given)
    0.6 | 2.3
51: O=C(Nc1nc2c(s1)CN(Cc1ccccc1)CC2)C1CCCC1
    0.76 | -3.5
52: N#Cc1c(/N=C/N2CCOCC2)sc2c1CCCCC2
    0.33 | 1.1
53: CCOC(=O)Cc1csc(NC(=O)Cn2cnc3c2c(=O)n(C)c(=O)n3C)n1
    1 | -0.78
54: Cc1ccc(Cn2c(SCC(=O)N(C)C3CCS(=O)(=O)C3)nc3ccccc3c2=O)cc1 (stereo not given)
    2.9 | 1.1
55: NC(=O)c1ccccc1NC(=O)CC12CC3CC(CC(Br)(C3)C1)C2
    1.1 | 2.3
56: OCC1(CCc2ccccc2)CCN(Cc2c(F)ccc(F)c2F)CC1
    0.03 | 0.63
57: CC(=O)Nc1ccc(C(=O)N/C(=C\c2ccccc2)C(=O)Nc2cccc(C(=O)O)c2)cc1
    2.1 | -0.9
58: NC(=NC(=O)c1ccccc1)C1=C(O)CCC1=O
    2.3 | -2.3
59: COC(=O)C1=C(C(=O)OC)[C@@H]2N(Cc3ccccc3)c3ccccc3[C@@]23C[C@@H](C(=O)OC)N(C(C)=O)C3=N1
    0.11 | -0.92
60: CCOC(=O)c1ccc(NC(=O)c2c(Cl)cc(C)nc2C)cc1
    0.71 | -0.59
61: Cc1ccccc1NC(=O)CSc1nc2ccccc2c(=O)n1C
    0.07 | 0.34
62: CC1=CC(C)C(C(=O)O)C(C(=O)Nc2cccnc2)C1 (stereo not given)
    0.02 | 0.04
63: CCOC(=O)c1ccccc1NC(=O)CN(c1ccccc1OC)S(C)(=O)=O
    0.06 | -0.78
64: O=C(CN1CCC2(CC1)OCCO2)c1c[nH]c2ccccc12
    0.01 | 1.1
65: CC1=C(C#N)C(NC(=O)c2ccco2)(C(F)(F)F)C(=O)N1 (stereo not given)
    0.62 | -0.96
66: Cc1ccc(C)c(N2CCN(C(=O)Cn3ncn4cccc4c3=O)CC2)c1
    1.5 | -0.58
67: CCOCCCNCc1cc(Br)ccc1OCC
    1.5 | -0.97
68: N#Cc1ccccc1NC(=O)C(=O)NCC1CCCN1S(=O)(=O)c1cccs1 (stereo not given)
    1.6 | 0.01
69: CCC(C)NC(=O)c1ccc(-n2c(=S)[nH]c3ccccc3c2=O)cc1 (stereo not given)
    0.11 | -0.34
70: COC(=O)c1sc(NC(=S)NC(=O)c2ccccc2)nc1C
    0.59 | 0
71: CCCCCc1nc2c(c3c1CCCC3)CCCC2
    0.7 | 1.3
72: CSCC[C@H](NC(=O)N1CCn2c1nc1ccccc12)C(=O)NC1CC1
    0.59 | -1.1
73: CC(C)NS(=O)(=O)c1ccc(OCC(=O)Nc2cccc3ccccc23)cc1
    1.1 | 0.16
74: CC(C)(C)c1nc2cc(Cl)c([N+](=O)[O-])cc2o1
    1.1 | 0.12
75: COc1ccc(NC(=O)C2CCN(C(=O)[C@@H]3Cc4ccccc4CN3C(=O)OC(C)(C)C)CC2)cc1
    0.29 | 1

The list continues:
nr	structure	KCNQ2 enhance	KCNQ2 enhance baseline
76	O=P(CO)(Cc1ccccc1)Cc1ccccc1	0.41	-0.27
77	CN(C(=O)COC(=O)c1cc(Br)c(Br)s1)C1CCS(=O)(=O)C1 (stereo not given)	1	-0.65
78	CC(C)(C)CN1CCN(Cc2cc3ccccc3[nH]2)CC1CCO (stereo not given)	0.01	-0.01
79	COc1ccc(C(=O)Cc2cc(OC)c(OC)cc2[N+](=O)[O-])c(OC)c1	2.9	-1.1
80	CCOCc1c(C(=O)NC2CCCCCC2)oc2ccccc12	0.39	-0.4
81	O=C(CCCC(=O)OCC(F)(F)C(F)F)Nc1ccc(NC(=O)CCCC(=O)OCC(F)(F)C(F)F)cc1	0.67	-0.53
82	N#C/C(=C\c1ccc(C(=O)O)cc1)c1ccccn1	0.59	-0.88
83	CCN1CCN(c2ccc(S(=O)(=O)N3CCOCC3)cc2NC(=O)C(C)Oc2cccc(Cl)c2)CC1 (stereo not given)	0.22	-0.05
84	Nc1nnnn1/N=C/c1cccs1	0.75	0.67
85	COc1ccc(F)cc1S(=O)(=O)NC1CCCCCC1	1.6	1
86	CC(=O)c1cc2c(cc1NC(=O)Cn1nc(-c3ccc(C)cc3)ccc1=O)OCO2	0.19	0.68
87	CCOC(=O)c1c(C)nc(C)c(C(=O)OCC)c1-c1cccnc1	0.51	-0.51
88	CCOc1ccccc1NC(=O)c1ccc(OCC)c([N+](=O)[O-])c1	2.2	-0.17
89	COc1ccc(Cl)cc1NC(=O)COC(C)=O	0.81	0
90	N#Cc1c(N2CCCCC2)nc(N)c2c(N)nc3c(c12)CC(c1ccccc1)O3 (stereo not given)	0.73	-0.98
91	CCOC(=O)N1CCC(NS(=O)(=O)c2cc3c(cc2C)NC(=O)CO3)CC1	0.19	0.41
92	CCn1c(-c2cccc(Br)c2)n[nH]c1=S	0.94	-0.01
93	Cn1c(CO)cnc1SCc1ccc(Cl)cc1	0.06	-1.6
94	Cc1ccsc1/C=N/NC(=O)c1nnn(-c2nonc2N)c1CSc1ccccc1	2.2	-0.67
95	Cc1ccc(C(=O)Nc2cc(-c3ccn[nH]3)c(C)n(N)c2=O)cc1	1.3	-0.9
96	O=C1CSC(=Nc2ccc(Cl)cc2)N1	0.77	0.1
97	CSc1nc(N)cc(=O)[nH]1	1.1	-0.17
98	O=C(NCCc1c[nH]c2ccccc12)/C(=C\c1ccco1)NC(=O)c1ccco1	0.85	-0.51
99	COc1cc(CNC2CCCC2)cc(OC)c1	2.2	-1.1
100	CC(=O)Nc1ccc(S(=O)(=O)N2C(=O)c3cccc4cccc2c34)cc1	0.22	-0.18
101	O=C(O)c1c(-c2ccccc2)oc2ccc(O)cc12	0.41	-1.8
102	COc1ccc2oc(C(=O)OCC(=O)NCC3CCCO3)c(C)c2c1 (stereo not given)	0.91	-1.7
103	COc1cc(NC(=O)c2ccccc2Cl)c(OC)cc1NC(=O)CN1CCOCC1	0.97	0.03
104	O=C(Nc1ccc2oc(-c3ccccc3)nc2c1)c1ccco1	1.8	-2.4
105	COc1cc([N+](=O)[O-])ccc1NC(=O)NN1CCN(C)CC1	0.68	0.2
106	CC(=O)Nc1ccc(NC(=O)CCCCCN2C(=O)c3ccccc3C2=O)cc1	0.2	-0.31
107	COc1ccc2c(c1)c(=O)oc1cc(OCC(=O)N3CCCC(C)C3)ccc12 (stereo not given)	0.05	-0.26
108	CC(C)/C=C/CN1CCC(Oc2ccc(C(=O)N3CCCC3)cc2)CC1	0.9	1.7
109	CCOc1ccc(OCCOc2ncnc3ccccc23)cc1	1.1	-0.02
110	O=C(CSc1nccc(=O)[nH]1)Nc1ccc(N2CCOCC2)cc1	0.79	-0.3
111	O=C(N/N=C/c1cn(-c2ccccc2)nc1-c1ccc(F)cc1)c1ccc2c(c1)OCO2	1.8	-1.4
112	S=c1[nH]nc(-c2ccc(Cl)cc2)n1-c1cccnc1	1.6	0.92

Some of the entries above in another layout:
10: CC(=O)Nc1ccc(NC(=O)Cc2ccc(-c3ccccc3)cc2)cc1
  KCNQ2 enhance: 0.65
  KCNQ2 enhance baseline: -2.4
11: Cc1ccc(S(=O)(=O)NC2=NCN(Cc3cccnc3)CN2)cc1
  KCNQ2 enhance: 0.23
  KCNQ2 enhance baseline: 1.1

Screening data deposited in PubChem by Johns Hopkins Ion Channel Center.

Not all compounds are listed (hit frequency here may not be typical).
